# From PubChem
# N370S GC: N370S glucocerebrosidase modulation, Gaucher chaperone candidate | P04062 | N370S GC spleen homogenate, 4MU-glucoside fluorescence | Potency, µM (series often up to 59.4 µM), for the others: top-dose activity change, negative = inhibition, hits mostly inhibitors | hit rate 0.092% among 330,000 | AID 2101; active = well fitted inhibition curve with a large enough effect; inconclusive = small, poorly fitted or top-dose-only effect, or effect the other way, or another doubt; inactive = no such curve, though single readings can be large or run the other way;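 also: 0% = full enzyme activity and -100% = no enzyme basal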
# Active calls of the source: *; ? = inconclusive; & = joins results of further samples. Potency is read from the fitted curve at half-maximal effect. An excerpt, and most or all hits are left out here.
N370S GC,Molecule
7%,COc1cc(S(=O)(=O)N2CCN(c3ccccc3F)CC2)c(OC)cc1Cl
6%,Cc1ccccc1NC(=S)c1nc2ccccc2[nH]1
2%,CNC(=O)n1cc(C)c(-c2cccs2)n1
-15%&-1%&1%&-16%,COc1ccc2cc(C(C)C(=O)O)ccc2c1 (stereo unspecified)
20%,Cc1nc(NC(=O)c2ccccc2)sc1-c1csc(NCc2ccccc2)n1
-15%,O=[N+]([O-])c1ccc(/C=N/n2cn[nH]c2=S)cc1
-7%,Cc1ccc(/C=C/S(=O)(=O)NCC(=O)OCC(=O)Nc2c(F)cccc2F)cc1
3%,CNCc1c(OCc2ccccc2F)ccc2ccccc12
15%,O=C(Cn1nnc(-c2ccccc2)n1)NNC(=O)c1ccc(Br)cc1
-2%,CCOC(=O)C(C#N)c1ccccn1 (stereo unspecified)
10%,Cc1ccc(C(=O)Nc2cccnc2Oc2ccc(Cl)cc2)cc1
-1%,CCN1CCN(C(=O)N[C@@H](C(=O)N[C@@H]2C(=O)N3C(C(=O)O)=C(CSc4nnnn4C)CS[C@H]23)c2ccc(O)cc2)C(=O)C1=O
4%,CCS(=O)(=O)N1CCN(c2c(Cl)cccc2[N+](=O)[O-])CC1
-2%,CC(C)NS(=O)(=O)c1ccc(NC(=O)Cc2cccs2)cc1
-2%,CCN(CC)S(=O)(=O)c1ccc(Cl)c(NC(=O)c2cc(Cl)cc(Cl)c2)c1
8%,CC(C)CN1C(=O)c2ccc(NC(=O)c3ccco3)cc2C1=O
-7%,CCc1nnc(NC(=O)CCS(=O)(=O)c2ccc(C)cc2)s1
-7%,COc1cccc(OCCCCCCN2CCOCC2)c1
-6%,OCCN(Cc1ccccc1)Cc1ccc(Cl)cc1
-4%,CCC(C(=O)OC)n1cnc2scc(-c3ccc(C)cc3)c2c1=O (stereo unspecified)
16%,N#Cc1cc(NCC2CCCO2)c([N+](=O)[O-])cc1C#N (stereo unspecified)
-19%,Cn1nnnc1N=N/C(=N/Nc1ccccc1)c1ccccc1
5%,CCCCCCCOC(=O)c1ccc(OC(=O)c2cccnc2)cc1
1%,CCOC(=O)c1cnn(CCOC(=O)Cc2cccs2)c1NC(=O)Cc1cccs1
-15%,CN1C(=O)C(C)(C)c2cc(S(=O)(=O)N3CCC(C(=O)NCc4ccc(Cl)cc4)CC3)ccc21
-17%,C=CCNCCCCOc1ccc(C)cc1[N+](=O)[O-]
8%,COc1ccc(-c2nsc3c(N4CCN(C(=O)c5ccco5)CC4)ncnc23)cc1
-22%,c1cnc2c(SCc3ccc(-c4nnco4)cc3)cccc2c1
-1%,CCCCNC(=O)C1CC(=O)N(CCC(C)C)C1 (stereo unspecified)
2%,C=C(C)C1CC=C(C)/C(=N/NC(=O)c2cccc([N+](=O)[O-])c2)C1 (stereo unspecified)
0%,Cc1ccc(NC(=O)CCC(=O)NNC(=O)COc2ccccc2)c(C)c1
15%,Cc1cccn2c(=O)c3cc(C(=O)NC4CCCC4)c(=N)n(C4CCCC4)c3nc12

# Of the compounds above, these contain a furan ring, fused or not:
N370S GC,Molecule
8%,CC(C)CN1C(=O)c2ccc(NC(=O)c3ccco3)cc2C1=O
8%,COc1ccc(-c2nsc3c(N4CCN(C(=O)c5ccco5)CC4)ncnc23)cc1

# Following part.
N370S GC,Molecule
4%,COC(=O)c1c(C)[nH]c(C(=O)OCC(=O)N(CC(C)C)c2c(N)n(Cc3ccccc3)c(=O)[nH]c2=O)c1C
2%,Cn1nc(C(=O)Nc2ccc(S(=O)(=O)N3CCCC3)cc2)ccc1=O
3%,Cc1cc(=O)[nH]n(CCO)c1=O
7%,O=C(CSc1nncs1)Nc1ccc2c(c1)OCCO2
-8%,Cc1cc(NC(=O)CCC(=O)N(Cc2ccco2)C2(C(=O)NC3CCCC3)CCCCC2)no1
-14%,OCCNCCNCc1ccccc1OCc1ccccc1
-2%,CC1CC(=O)Nc2ccccc2N1C(=O)Nc1ccccc1 (stereo unspecified)
-4%,COc1ccc(-c2nn(-c3ccccc3)cc2C(=O)NCC2CCCO2)cc1 (stereo unspecified)
-15%,COc1ccc(S(=O)(=O)Cc2ccc(C(=O)NCCCN(C)c3ccccc3)o2)cc1
9%,COC(=O)c1cc(S(=O)(=O)N2CCC(C)CC2)ccc1F
11%,CC1=Nc2cc(Cl)ccc2Oc2ccccc21
8%,COc1ccc(S(=O)(=O)NCCc2nnc3ccc(SCC(=O)Nc4nc(C)cs4)nn23)cc1
-6%,C=CCn1c(N)c(C(=O)NCc2cccnc2)sc1=S
-1%,N#Cc1cccnc1Nc1ccc(Cl)cc1
-2%,CC(=O)OCCCn1c(C)[n+](C)c2cc(Cl)c(Cl)cc21
-27%,CCCCCCSc1ccc([C@@H]2[C@@H]3C(=O)N(C)C(=O)[C@@H]3[C@]3(C(=O)OC)CCCCN23)cc1OC

# Copied from the list:
# `C=CCn1c(N)c(C(=O)NCc2cccnc2)sc1=S` | N370S GC: -6%
# `CC(C)CN1C(=O)c2ccc(NC(=O)c3ccco3)cc2C1=O` | N370S GC: 8%
# `OCCNCCNCc1ccccc1OCc1ccccc1` | N370S GC: -14%
# `Cc1nc(NC(=O)c2ccccc2)sc1-c1csc(NCc2ccccc2)n1` | N370S GC: 20%

# Additional results
N370S GC,Molecule
1%,COC(=O)c1ccc(NC(=O)CSc2nnnn2C2CCCCC2)cc1
3%,N#Cc1cccc(C(=O)OCC(=O)NC(=O)NC2CCCCC2)c1
29%,CC1CN(C(=O)C2CCCC2)C(C)CN1C(=O)C1CCCC1 (stereo unspecified)
-2%,COc1cc(C2C(S(=O)(=O)c3ccccc3)CON2C)ccc1OCc1ccc(F)cc1 (stereo unspecified)
?,COc1ccc(Cl)cc1NC(=O)Cn1nc(-c2ccc(C)cc2)n(C)c1=S
6%,Cc1nc(S(=O)(=O)NC2CCCCC2)c(C#N)c(C)c1Cl
-15%,CCSc1nnc(NC(=O)CSc2nnc(C)c(=O)n2N)s1
-6%,CCOc1ccc(OCC(=O)N2CCC3(CC2)CC(=O)c2ccccc2O3)cc1
3%,COc1ccccc1NC(=O)CSc1nccc(=O)[nH]1
-12%,COc1cc(CN2CC(C)CC(C)C2)cc([N+](=O)[O-])c1O (stereo unspecified)
-6%,COc1ccc2c(c1)C(=O)N1[C@H]3c4cc(OC)ccc4OC[C@@H]3[C@H](c3ccccc3)[C@]1(C)C(=O)N2
3%,Cc1ccccc1Nc1nc(N)nc(COC(=O)c2ccc(S(=O)(=O)N(C)C)cc2)n1
3%,CSc1ccc(/C=C(/NC(=O)c2ccco2)C(=O)N2CCCCCC2)cc1
-14%,Cc1cc(NC(=O)CSc2ccnc(=O)[nH]2)no1
6%,O=C(O)Cn1cccc1C(=O)c1ccccc1
11%,O=C1C2C(C(=O)N1CCc1ccccc1)C1C=CC2C12CC2 (stereo unspecified)

# Retrieved by compound from above:
N370S GC,Molecule
11%,O=C1C2C(C(=O)N1CCc1ccccc1)C1C=CC2C12CC2 (stereo unspecified)
-14%,Cc1cc(NC(=O)CSc2ccnc(=O)[nH]2)no1

# Next part.
N370S GC,Molecule
-5%,CC(C)(O)C#Cc1ccc(C(=O)NCc2cccs2)s1
0%,O=C(NCc1cc(C(F)(F)F)cc(C(F)(F)F)c1)C1CC(c2ccccc2[N+](=O)[O-])=NO1 (stereo unspecified)
-1%,Cc1ccc(S(=O)(=O)/N=C(/Sc2ccccc2C(=O)O)c2ccccc2)cc1
?,Cn1ccnc1SCC(=O)NC12CC3CC(CC(C3)C1)C2
9%,O=C(CCCn1c(=O)[nH]c2cc(Cl)ccc2c1=O)NCCC1=CCCCC1
1%,CCOC(=O)Cc1csc(NC(=O)CCCN2C(=O)c3ccccc3C2=O)n1
-2%,O=C(CSCCO)Nc1ccc([N+](=O)[O-])cc1
-2%,COc1cc(OC)c(C2N(c3cc(C)on3)C(=O)C3CCCN32)cc1OC (stereo unspecified)
6%,O=C(CN1C(=O)/C(=C\c2ccccc2Cl)Oc2ccccc21)NCc1cccnc1
6%,Cc1cc(-n2c(SCC(=O)NCc3cccs3)nc3n[nH]c(C)c3c2=N)ccc1Cl
1%,CN(C)/N=C/c1ccc(P(c2ccc(/C=N/N(C)C)o2)c2ccc(/C=N/N(C)C)o2)o1
-2%,CCOC(=O)N/N=C(/C)c1ccc(N2C(=O)C3CCCCC3C2=O)cc1 (stereo unspecified)
-4%,Cc1ccc(/C=N/NC(=O)C2CC(=O)N(c3ccccc3)C2)s1 (stereo unspecified)
-2%,CCN1CCc2c(OCC(=O)Nc3ccccc3)cccc2C1=O
-3%,COc1cc(C2C(C(=O)/C=C/c3ccccc3)=C(O)C(=O)N2c2ccccn2)ccc1O (stereo unspecified)
-5%,O=C(NCC(c1cccs1)N1CCOCC1)c1cc(S(=O)(=O)N2CCOCC2)ccc1F (stereo unspecified)
7%,O=S(=O)(c1ccccc1)N(Cc1ccccc1)c1ccccn1
-1%,CCOc1ccc(OCc2ccc(C(=O)N3CCCC(C)C3)cc2)cc1 (stereo unspecified)
6%,CCNC(=S)N/N=C1\CCCCc2ccccc21
-5%,Cc1cc(NS(=O)(=O)c2ccc(NC(=S)NC(=O)c3ccc(F)cc3Cl)cc2)no1
-11%,COCCNC(=S)N1CCN(C(c2ccccc2)c2ccccc2)CC1
16%,COc1ccc(N(CC(=O)Nc2ccc(C(C)C)cc2)S(=O)(=O)c2c(C)noc2C)cc1
0%,O=C(c1ccc(N2CCCCC2)c([N+](=O)[O-])c1)N(c1ccccn1)c1ccccn1
2%,CCCCC(CCCCl)C(=O)Nc1ccccc1 (stereo unspecified)
5%,Cc1c(N2C(=O)c3ccccc3C2=O)c(=O)n(-c2ccccc2)n1C
4%,COc1ccccc1CN1CC(C(=O)N2CCC(C(=O)c3ccccc3)CC2)CCC1=O (stereo unspecified)
14%,COc1ccc(-c2csc(N3C(=N)SCC3=O)n2)cc1
-4%,CCn1c(=O)cc(SCC(=O)NCCCN2CCC(C)CC2)c2ccccc21
-12%,CCCN(CCC)CCN1C(=O)C2C(C(=O)Nc3cccc(SC)c3)C3C=CC2(O3)C1C(=O)NC1CCCCC1 (stereo unspecified)
-3%,CNC(=O)CN(c1ccc(OC)cc1)S(=O)(=O)c1ccc(F)cc1
-20%,Cc1cccc(C)c1-n1c(C)cc(/C=N\NC(=O)CC(=O)NC2CCCCC2)c1C
4%,O=C(COc1cccc(F)c1)Nc1ccc2[nH]c(=O)[nH]c2c1
2%,O=C(N/N=C\c1cc2c(cc1Cl)OCO2)c1ccc(Br)s1
7%,O=C1C(CCS(=O)c2ccccc2)C(=O)N(c2ccccc2)N1c1ccccc1 (stereo unspecified)
-8%,Cn1ncc(Cl)c1C(=O)N1CCN(c2ccc(Cl)c(Cl)c2)CC1
-1%,O=C(COC(=O)C1CC2C=CC1C2)NCc1ccco1 (stereo unspecified)
9%,O=C(CCCSc1nc2ccccc2s1)NCc1ccc2c(c1)OCO2
-5%,O=C(NC1CCCCC1)c1cc([N+](=O)[O-])ccc1N1CCCC1
-8%,CC(NC(=O)/C=C/c1ccccc1[N+](=O)[O-])C1CC2CCC1C2 (stereo unspecified)
-20%,O=C(Nc1cccc(O)c1)c1ccc(Br)cc1
-4%,Cn1ncc(Cl)c1C(=O)N1CCOCC1
0%,O=C(O)c1cc(S(=O)(=O)N2CCN(C(=O)c3ccco3)CC2)c(Cl)cc1Cl
1%,O=C(O)C(Cc1ccccc1)NC(=O)C(c1ccccc1)c1ccccc1 (stereo unspecified)
24%,CCN1C(=O)C(CC(=O)Nc2ccc(F)cc2)N(Cc2cccs2)C1=S (stereo unspecified)
-7%,COc1ccccc1Oc1ccc(N/C=C/C(=O)c2ccc(C)o2)cc1
-1%,OCCNc1nc(N2CCN(Cc3ccccc3)CC2)nc2ccccc12
8%,COc1ccc(OCCn2cc(/C=C(\C#N)C(=O)NCc3ccco3)c3ccccc32)cc1
-12%,CC(=O)Nc1cccc(C(=O)OCC(=O)c2ccccc2Cl)c1
-11%,CN(C)c1ccc(C(=O)Nc2nnc(-c3ccc(Cl)cc3)o2)cc1
6%,COc1cc2c(cc1OC)CN(c1nc(-c3cccnc3)nc3ccccc13)CC2
2%,Cc1ccccc1Nc1nc(N)nc(CSc2nncn2C)n1
1%,Cc1ccc(S(=O)(=O)N(C)C)cc1NC(=O)COC(=O)CCNS(=O)(=O)c1ccccc1
-9%,O=C(NCCc1ccco1)C(=O)NCC1OCCCN1S(=O)(=O)c1ccc(Cl)cc1 (stereo unspecified)
9%,O=C(Nc1ccccc1)N1CCN(c2nc3ccccc3s2)CC1
-1%,CCCCN(Cc1ccco1)C(=O)Cn1ncc2c(=O)oc3ccc(C)cc3c21
0%,C=CCN1C(=O)c2ccc(C(=O)N(CC(C)C)c3c(N)n(CCCC)c(=O)[nH]c3=O)cc2C1=O

# Five of the entries above in order of their number in N370S GC, descending.
N370S GC,Molecule
9%,O=C(Nc1ccccc1)N1CCN(c2nc3ccccc3s2)CC1
2%,Cc1ccccc1Nc1nc(N)nc(CSc2nncn2C)n1
1%,Cc1ccc(S(=O)(=O)N(C)C)cc1NC(=O)COC(=O)CCNS(=O)(=O)c1ccccc1
-1%,CCCCN(Cc1ccco1)C(=O)Cn1ncc2c(=O)oc3ccc(C)cc3c21
-11%,CN(C)c1ccc(C(=O)Nc2nnc(-c3ccc(Cl)cc3)o2)cc1

# The results go on.
N370S GC,Molecule
-13%,O=C(c1ccco1)N1CCN(c2c(-c3ccccc3)c3cc(Cl)ccc3[nH]c2=O)CC1
3%,Cc1ccc(OC(=O)CCC(=O)Nc2ccc(S(=O)(=O)Nc3cc(C)on3)cc2)cc1
-12%,Cc1ccc(CN2CCN(Cc3cnn(-c4ccc(F)cc4)c3)CC2CCO)o1 (stereo unspecified)
-15%,Cc1ccc(C(=O)NNC(=O)c2ccccc2OCc2c(C)noc2C)cc1
-2%,CC1(C)Cc2c(cnn2-c2cccc(F)c2)C(NC(=O)CSc2ccncc2)C1 (stereo unspecified)
-7%,COC(=O)C1=C(C)N(c2ccc(F)c(Cl)c2)C(=O)C1
0%,CN(C)/C(CN1CCCCC1)=C1\N=C(c2ccccc2)OC1=O
7%,O=C(Nc1ccccc1N1CCCC1)c1ccc2ccccc2c1
3%,O=C(c1ccc(N2CCCC2=O)cc1)N1CCN(c2ccccc2)CC1
-1%,CN(C)C(=O)CSc1nc2ccccc2n1CC(=O)N1CCN(c2ccccc2)CC1
